# ALR inh – inhibitors of human ALR sulfhydryl oxidase, primary screen, biochemical, H2O2 detection, HRP-luminol luminescence, single point; purified ALR, DTT oxidation; inhibition, % (test concentration not listed); AID 485317, 2010; hit rate 3.8% among 290,000;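 active = mean and each replicate at 75% or more; inconclusive = only one of the two met; inactive = neither met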;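 also: stock transfer was 7.5 nL into about 7.5 µL; 0% = neutral wells and 100% = wells with inactivated enzyme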
# Target sequence (P55789 whole entry, looked up): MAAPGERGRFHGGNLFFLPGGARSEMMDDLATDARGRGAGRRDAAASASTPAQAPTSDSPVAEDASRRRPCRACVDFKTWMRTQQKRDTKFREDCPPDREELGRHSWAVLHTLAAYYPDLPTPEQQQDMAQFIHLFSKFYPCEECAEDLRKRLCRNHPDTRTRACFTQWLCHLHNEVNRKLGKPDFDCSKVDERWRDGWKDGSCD
# Calb FLC – C. albicans growth inhibition with fluconazole, primary screen, CaCi-2 strain, Alamar Blue fluorescence; growth inhibition, % (no concentration beside the values); hit rate 0.57% among 300,000; C. albicans CaCi-2 (fluconazole-resistant clinical isolate) + fluconazole, 48 h;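 active = most replicates above 75%; inconclusive = exactly half above 75%; inactive = most below 75%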;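 also: all wells also contain fluconazole at 8 µg/ml as a sub-toxic cotreatment; 0% = median of DMSO wells and 100% = median of geldanamycin control wells; wells of about 8 µL received 7.5 nL stock; the first replicate is given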
# RanGTP-Impb inh – inhibitors of RanGTP-importin-beta interaction, primary screen, biochemical, FRET, CFP-Ran, YFP-importin-beta, homogeneous; Ran GTPase (GTP-bound) - importin-beta complex; cell-free CFP-Ran/YFP-importin-beta FRET ratio; inhibition, % (test concentration not listed); hit rate 1.1% among 300,000; AID 2216, 2009;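 active = most replicates above 15%; inconclusive = exactly half above 15%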;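 also: 0% = DMSO wells and 100% = Ran loaded with GDP instead of GTP; wells of about 40 µL received 100 nL stock; the first replicate is given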
# LANA-H2A inh – blockers of LANA interaction with H2A/H2B – biochemical, FP readout, HTS, primary screen; Protein LANA1 (Human herpesvirus 8 type P (isolate GK18)), Q9QR71; cell-free LANA-H2A/H2B peptide, fluorescence polarization; inhibition, % (concentration not given with the values); hit rate 0.6% among 320,000; AID 2629, 2010; in the data active = inhibition mostly above about 10%, no sharp cut-off; inactive = mostly below about 6.7%;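 also: stock transfer was 7.5 nL into about 10 µL; 0% = median of vehicle wells and 100% = median of positive control wells; one replicate is shown; the record names a cut of 25% in any replicate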
# Vif TR-FRET – inhibitors of Vif binding to APOBEC3G peptide, primary screen, biochemical, TR-FRET, GST-Vif 1-94, biotin-A3G peptide, dose response retest (AID 1117319). inhibition, %, or IC50 in µM where a hit was titrated. hit rate 0.57% among 260,000. TR-FRET GST-Vif / biotin-A3G peptide binding; higher % means a stronger effect; test concentration not given here; strong numbers were not always called active;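 active = above the screen mean plus three standard deviations and confirmed in dose response; inconclusive = results disagree or hit not tested in dose response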;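 also: Vif residues 1-94 fused to GST binding biotinylated APOBEC3G peptide 110-148; 0% = full assay without inhibitor and 100% = GST in place of GST-Vif; retest series ran down from 100 µM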
# B2AR ag – beta2AR agonists driving receptor internalization, primary screen, cell-based, FAP fluorogen, flow cytometry; AID 504454, 2011; hit rate 0.43% among 340,000; response, % (concentration not given with the values); Beta-2 adrenergic receptor (Homo sapiens), P07550; Am2.2-beta2AR cells; reference of the scale not given here;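 active = response above a set limit, near 3 SD of response in nonfluorescent compounds, cut at about 42% in these data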;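 also: stock transfer was 100 nL into about 11 µL; a reference agonist was the positive control; negative values mostly stem from fluorescent compounds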
# Target sequence (P07550 whole entry, looked up): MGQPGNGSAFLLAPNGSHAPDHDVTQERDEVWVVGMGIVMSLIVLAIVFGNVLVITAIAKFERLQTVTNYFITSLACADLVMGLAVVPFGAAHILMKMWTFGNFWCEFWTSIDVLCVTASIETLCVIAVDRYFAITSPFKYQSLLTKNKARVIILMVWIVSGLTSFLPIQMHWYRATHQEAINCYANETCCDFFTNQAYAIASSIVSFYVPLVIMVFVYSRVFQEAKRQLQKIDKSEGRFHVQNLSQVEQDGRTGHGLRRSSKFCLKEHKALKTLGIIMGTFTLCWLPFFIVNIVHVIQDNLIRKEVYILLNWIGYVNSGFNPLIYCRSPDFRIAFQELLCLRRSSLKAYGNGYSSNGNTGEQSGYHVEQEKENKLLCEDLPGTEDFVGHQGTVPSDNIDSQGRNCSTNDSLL
# HNF4A DNA FP – change in binding of human HNF4A to DNA, primary screen, biochemical, fluorescence polarization, FITC-DNA; Hepatocyte nuclear factor 4-alpha (Homo sapiens), P41235; 1 h; activity change, % at 10 µM; hit rate 0.3% among 360,000; in the data active = activity change above about 30%, passing the limit was not always enough;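 also: controls were the assay level and a saturating level of protein; the project sought stronger binding though the title names inhibitors; some compounds called inactive have numbers as strong as hits; positive values seem to mean higher polarization but the record does not say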
# Target sequence (P41235 whole entry, looked up): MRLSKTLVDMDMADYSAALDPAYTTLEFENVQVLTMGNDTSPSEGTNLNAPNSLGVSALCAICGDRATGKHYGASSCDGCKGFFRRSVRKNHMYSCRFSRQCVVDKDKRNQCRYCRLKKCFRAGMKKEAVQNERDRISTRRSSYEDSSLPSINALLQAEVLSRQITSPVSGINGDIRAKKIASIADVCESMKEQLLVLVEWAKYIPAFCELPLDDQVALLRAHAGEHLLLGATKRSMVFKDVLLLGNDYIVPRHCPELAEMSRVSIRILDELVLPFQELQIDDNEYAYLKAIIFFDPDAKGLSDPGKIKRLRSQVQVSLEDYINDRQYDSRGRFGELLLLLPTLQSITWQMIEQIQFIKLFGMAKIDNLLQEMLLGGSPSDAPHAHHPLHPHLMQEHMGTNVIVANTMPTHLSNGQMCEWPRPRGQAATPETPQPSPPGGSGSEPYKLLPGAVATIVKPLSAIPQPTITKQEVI
# Numbers without * were called inactive; u = inconclusive; x = not tested or not shown; & = joins results of further samples. Compounds were not picked by outcome. Share with any hit: about 6.3%.
SMILES,ALR inh,Calb FLC,RanGTP-Impb inh,LANA-H2A inh,Vif TR-FRET,B2AR ag,HNF4A DNA FP
O=C(NNC1=Nc2cccc3cccc1c23)c1ccccc1Br,x,1.2,u,x,12.7%,0.7,3.3
Cc1ccc(-c2cc3c(nn2)-c2ccccc2C3=O)cc1,-26.2,-11.9,4.4,-2.1,0.1%,-2.9,1.5
COCCNC(=S)N(CCc1c(C)[nH]c2ccccc12)Cc1ccco1,87.1*,4.1,1.7,-2.3,x,0.7,2.5
CCOc1ccc(N(CC(=O)NC2CCC(C)CC2)S(=O)(=O)c2c(C)noc2C)cc1 (centres undefined),-3.6,-1.3,-1.6,2.5,x,-5.4,0.7
CCOc1ccc(NS(=O)(=O)c2cc(NC(=O)CCC(=O)c3cccs3)ccc2Cl)cc1,-18.5,33.9,1.6,-5.0,u,-14.9,0.2
O=C(Nc1nc2ccccc2[nH]1)c1ccc(F)cc1,-2.2,-19.9,2.3,0.1,-9.1%,-20.7,-0.6
CS(=O)(=O)Nc1ccccc1C(=O)OCC(=O)NC1CC1,-5.4,x,x,0.1,-2.6%,8.8,-0.2
CCOC(=O)C1(Cc2ccccc2)CCCN(C2CCN(C(C)=O)CC2)C1 (centres undefined),-6.5,1.4,8.9,5.4,-6.6%,-11.6,9.4
CCCCOc1ccccc1C1NC(=O)NC(C)=C1C(=O)OCCOCC (centres undefined),-3.5,0.3,-1.8,3.8,2.0%,-11.5,-0.9
COc1ccc(NC(=O)N2CCCC2C(=O)Nc2ccc(C)c(Cl)c2)cc1 (centres undefined),-5.9,-15.7,2.1,-2.0,0.9%,-5.1,1.7
COCCCNS(=O)(=O)c1ccc2c(c1)CCN2C(C)=O,x,5.9,1.1,1.4,6.2%,15.8,2.6
COc1cccc(CN(CC(=O)NCc2ccc(F)cc2)C(=O)c2ccco2)c1,-10.6,1.5,1.9,4.5,x,2.0,0.4
COCCNC(=S)c1ccc(OC)cc1,-13.4,x,x,-1.2,87.3%,0.6,-0.9
Nc1c(C(=O)Nc2ccc(Cl)c(Cl)c2)sc2nc(-c3cccnc3)ccc12,-7.3,-17.1,-2.5,-0.6,x,x,x
CCOC(=O)c1c(N/N=C/c2ccncc2)n[nH]c1C,39.5,4.8,3.5,1.6,u,-1.7,-0.9
Cc1cc(=O)oc2cc3oc(=O)cc(C)c3cc12,35.7,-2.4,-1.7,0.8,x,1.0,2.7
COc1ccccc1NC1=NC(C)(C)N=C(N)N1,-13.2,1.6,5.5,1.0,2.9%,2.2,-1.8
O=C(c1ccc(Cl)cc1)C1CCN(Cc2ccccc2)CC1,x,-9.1,-1.2,3.1,x,22.9,5.8
CC(=O)Oc1ccc(CC(C(=O)O)N2C(=O)c3ccccc3C2=O)cc1 (centres undefined),7.9,-2.4,1.7,-0.6,2.0%,0.2,0.5
COc1cccc(N2CC(C(=O)OC(C)C(=O)c3ccccc3)CC2=O)c1 (centres undefined),-2.0,20.5,2.8,5.0,-6.2%,0.5,-1.4
Cc1cc(NS(=O)(=O)c2ccc(NC(=O)CSc3nc4ncc(Br)cc4[nH]3)cc2)nc(C)n1,98.8*,-4.1,2.8,-3.1,-3.8%,-0.4,-0.6
CCOC(=O)Nc1ccc2nc3n(c(=O)c2c1)CCCCC3,34.4,7.3,5.6,-1.0,x,-16.0,0.2
CC1CCN(C(=S)Nc2ccc(F)cc2)CC1,-5.1,-7.4,3.3,3.8,-3.8%,3.6,-0.2
Cc1ccc([N+](=O)[O-])cc1N=Nc1c(-c2ccc([N+](=O)[O-])cc2)[nH]n(C(N)=S)c1=O,x,5.0,8.2,x,4.9%,19.5,-37.6
CCOC(=O)C1(CC2CCCCO2)CCN(Cc2nccn2-c2cccc(C)c2)CC1 (centres undefined),-4.4,-30.6,3.2,-1.0,x,-7.4,-2.0
O=C(CC(c1ccccc1)c1ccccc1)Nc1ccc(C(=O)O)cc1,x,6.7,-5.7,0.0,-10.7%,1.1,-1.7
Cc1nc(SCC(=O)NCC2CCCO2)c2c(C)c(C)sc2n1 (centres undefined),-3.8,x,x,4.1,x,-5.4,-0.4
CCN(CC)C(=O)c1ccccc1NC(=O)c1cccc(S(=O)(=O)N(CC)CC)c1,-20.4,-3.9,-3.1,5.5,1.9%,-4.7,0.9
CN(CCCNC(=O)C1CCC(=O)N1Cc1ccccc1Cl)c1ccccc1 (centres undefined),98.3*,3.9,1.1,-0.6,5.0%,1.2,-4.5
COc1ccc(CN(C)C(C)C(=O)Nc2cccc3ccccc23)cc1 (centres undefined),-12.8,2.6,2.6,5.5,x,-5.7,0.1
O=c1cccc2n1Cc1cc3ccccc3nc1-2,-24.8,-8.8,-5.5,-4.1,-5.7%,-2.7,4.8
O=C(NC1CCCCC1)C1CCN(c2cnccn2)CC1,1.2,-12.4,2.9,2.1,32.5%,-0.9,-1.0
O=C(NCC1CCCO1)c1cc2ccccc2cc1O (centres undefined),44.6,28.0,-13.0,-0.1,0.2%,11.2,6.3
CCn1cc(C(=O)N2CCN(c3cccc(Cl)c3)CC2)c2cc(OC)c(OC)cc2c1=O,3.3,1.5,-1.4,-2.3,-3.6%,-3.1,3.6
COC(=O)C1CCN(Cc2cc(=O)oc3cc(OC)ccc23)CC1,-12.0,-3.2,4.3,-0.2,-8.9%,9.3,-0.2
O=C(CNS(=O)(=O)c1ccccc1F)Nc1ccc(N2CCOCC2)cc1,94.4*,-4.7,-1.4,3.8,24.1%,3.4,-3.8
N#CCCn1cc(C(=O)O)c(-c2cc3ccccc3o2)n1,-0.4,-6.4,2.0,-1.3,1.8%,-0.2,-1.4
Cn1c(N)c(C(=O)COC(=O)/C=C/c2cccc(F)c2)c(=O)n(C)c1=O,0.9,x,x,-0.2,-7.6%,5.7,0.1
O=C(NCCc1ccc(Cl)cc1)C1CCCN(c2ncnc3c2nc2n3CCCCC2)C1 (centres undefined),2.4,-6.1,-1.6,0.9,x,-1.3,2.1
Cc1ccc(C(=O)Cn2c(C)cc(C)c(C#N)c2=O)cc1,-1.6,21.6,-0.7,1.5,-1.9%,-5.9,3.5
COC(=O)c1ccc(CSC2=NC[C@@H]3[C@@H]4C(=O)N(Cc5ccccc5)C(=O)[C@@H]4[C@](Cc4ccccc4)(C(=O)OC)N23)cc1,x,x,x,x,1.1%,2.6,-0.6
CCOc1ccc(-n2cc(C(=O)NCCOC)c3cc(OC)c(OC)cc3c2=O)cc1,-2.2,-0.3,-1.6,-0.5,-0.1%,9.9,6.8
COc1ccc(S(=O)(=O)NNC(=O)c2cc3ccccc3o2)cc1,33.0,-44.2,-0.7,3.4,2.4%,-0.4,-3.9
CCCCn1c(N)c(NCC)c(=O)[nH]c1=O,x,x,x,x,1.0%,-4.4,-11.1
COc1ccc(COC(=O)c2ccc(Cl)c(S(=O)(=O)N3CCOCC3)c2)cc1F,-2.0,14.1,0.2,7.0,-4.9%,9.5,3.7
Cc1cc(C)c(NC(=O)CCn2nnc3ccccc32)c(C)c1,-3.3,-13.9,-2.6,0.5,-1.0%,-2.4,12.6
Cc1ccc(N2CC(C(=O)OCC(=O)Nc3ccccc3F)CC2=O)cc1 (centres undefined),4.4,-28.0,2.7,17.7,-0.1%,12.6,0.1
O=C(CCN1C(=O)C2C3C=CC(C3)C2C1=O)N1CCN(c2ccccn2)CC1 (centres undefined),2.5,-8.8,x,2.9,u,3.6,1.9
O=C(NNC(=O)c1ccc2[nH]c(=O)c(=O)[nH]c2c1)c1cccc(Br)c1,0.1,8.0,1.5,5.6,-0.1%,6.8,0.3
C(=N\Nc1nc2ccccc2[nH]1)/c1ccc2c(c1)OCCO2,x,-5.1,4.5,1.6,17.2%,-2.1,4.3
Cc1ccc(NC(=O)CN2C(=S)NC(C)(C)CC2C)cc1Cl (centres undefined),8.9,-7.7,x,1.1,x,-20.7,-0.5
Cc1ccc(N2C(=O)/C(=C\c3ccc(C(C)C)cc3)N=C2SC2CCOC2=O)cc1 (centres undefined),-11.4,-1.3,3.9,-0.6,x,-4.3,-2.4
NC(=S)N/N=C/c1coc2cc(Cl)ccc2c1=O,x,-4.3,-3.8,x,18.9%,4.8,0.4
CC(C)(C)C1CCc2c(sc(NC(=O)c3cccs3)c2C(=O)N2CCCCC2)C1 (centres undefined),10.1,31.4,1.2,-0.2,-5.2%&1.9%,-4.0,-0.3
CNC(=O)c1cc2cc(OC)ccc2n1CCN(C)C,x,-3.5,2.3,0.1,-5.7%,2.8,0.4
Cc1ccc(Cn2nnc3c(=O)n(Cc4cc(C)ccc4C)cnc32)cc1,-1.6,-16.9,-1.0,1.9,-12.2%,-7.2,-0.9
C=CCN(Cc1nc(-c2cc(OC)ccc2OC)oc1C)C1CCS(=O)(=O)C1 (centres undefined),-1.6,0.6,-0.5,6.9,-8.0%,2.2,0.1
O=C(Nc1nncs1)Oc1ccccc1,2.4,-0.5,-2.5,0.4,0.4%,-6.6,4.2
CCOc1ccc(CCNC(=O)CCN2C(=O)COc3ccccc32)cc1OCC,-17.7,-4.8,-0.8,2.2,-2.3%,-0.5,-0.2
O=C(NCC(=O)N1CCN(c2ccccc2O)CC1)c1cccs1,99.1*,15.4,-5.2,5.6,8.4%,14.4,1.5
# Further compounds.
SMILES,ALR inh,Calb FLC,RanGTP-Impb inh,LANA-H2A inh,Vif TR-FRET,B2AR ag,HNF4A DNA FP
CC(C)(C)NC(=O)c1ccc(COCC(F)(F)F)o1,1.1,-2.6,3.3,-4.9,5.0%,-5.5,1.4
O=S1(=O)CC/C(=N/Nc2ccccn2)c2cc(F)ccc21,x,-0.6,1.5,0.9,-11.3%,-12.9,-3.6
COCCC(=O)N1CCCC(CCC(=O)NCc2ccc(F)c(F)c2)C1 (centres undefined),1.6,-16.5,2.0,0.9,1.2%,3.7,0.4
CC(C)c1ccc(S(=O)(=O)N2CCN(C(=O)CN3C(=O)NC4(CCCCC4)C3=O)CC2)cc1,0.1,28.1,4.2,-1.3,-4.4%,-3.5,2.2
COC(=O)C1C(c2ccccc2)C(C(=O)N2CCOCC2)C1c1ccccc1 (centres undefined),-4.2,-4.9,3.2,1.4,0.0%,0.7,3.2
CCOC(=O)c1cc(NC(=O)N2CCOCC2)c(C)nc1C,-5.6,-1.3,0.0,1.9,2.9%,-2.2,1.5
Nc1nnnn1/N=C/c1cccc(O)c1,3.5,12.8,-2.5,-0.1,9.2%,-2.7,0.8
COc1ccc(NC(=O)CSc2nccn2Cc2ccccc2)cc1,-5.3,-5.2,-0.8,-6.9,3.1%,-7.4,-2.2
CCC(C)[C@H](N)C(=O)NC[C@H]1CC[C@H](C(=O)N[C@@H](Cc2ccccc2)C(=O)O)CC1 (some centres undefined),-4.4,-3.4,-4.2,0.8,-0.6%,0.7,-3.0
Cc1cc(C)c(S(=O)(=O)N2CCC(C(=O)NCc3ccncc3)CC2)c(C)c1,4.3,x,x,3.6,x,6.8,1.6
COc1ccc(OC)c(S(=O)(=O)N(C)CC(=O)Nc2ccc3c(c2)OCO3)c1,-14.4,-1.2,2.7,-1.9,-0.5%,-3.6,1.3
O=C(NC1CCCCC1)C(c1ccccc1)N1CCOCC1 (centres undefined),-5.6,0.3,3.6,-0.3,17.4%,2.2,-1.9
COCCn1c(=O)[nH]c2cc(C(=O)N3CCN(c4ccc(Cl)cc4)CC3)ccc2c1=O,x,11.9,u,0.5,x,10.8,19.8
COc1cccc(NC(=S)NC(=O)c2c(Cl)c(C)nn2C)c1,-3.5,18.4,2.7,1.9,0.8%,-7.1,-0.8
O=c1oc(-c2cccs2)nc2scc(-c3cccs3)c12,28.6,-6.4,-3.1,2.5,-5.7%,7.8,-1.7
